UUG fidelity: alters start codon recognition fidelity in yeast; actives 0.13% (n = 350,000); activity score, % at 18.7 µM; S. cerevisiae UUG-firefly luciferase reporter, luminescence/redox ratio;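 active means replicate mean at a twofold rise or more, about +100% in these data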;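 further: firefly luciferase made from a UUG start codon reports start codon fidelity; reporter light over untreated wells divided by growth signal over untreated wells; some hits fall short of that in this replicate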
HIV Env fusion: blocks HIV Env-driven cell-cell fusion; inhibition, % at 12.3 µM; actives 1.1% (n = 360,000); HeLa-JRFL Env/CEM21 cell fusion, luciferase;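 active means mean replicate inhibition score of at least 50 and every replicate individually at or above 50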;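 further: 0% = plate neutral controls and 100% = maraviroc near 300 nM; one replicate is shown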
* hit, by the source's call; [ ] = another dose, or the depositor's remark. A portion of the library, so the mix of outcomes need not match the whole.

Structure,UUG fidelity,HIV Env fusion
Cc1ccc(S(=O)(=O)Nc2ccc3c(c2)C(=O)N([C@@H](C)CO)C[C@@H](C)[C@H](CN(C)S(=O)(=O)c2c(C)noc2C)OCCCC[C@H](C)O3)cc1,6,-102[16.7 µM]
COCC(=O)N(C)C[C@@H]1Oc2cc(C#CCC(C)C)ccc2S(=O)(=O)N([C@H](C)CO)C[C@H]1C,-3,-6[16.7 µM]
C[C@H](O)C#Cc1cnc2c(c1)C(=O)N([C@H](C)CO)C[C@@H](C)[C@H](CN(C)C(=O)CC1CC1)O2,-4,-19[16.7 µM]
C[C@H](CO)N1C[C@H](C)[C@H](CN(C)C(=O)Nc2ccc3c(c2)OCO3)Oc2ccc(NC(=O)NC3CCCCC3)cc2CC1=O,8,10[16.7 µM]
CCCN(C)C[C@@H]1Oc2ncc(-c3ccc(F)cc3)cc2C(=O)N([C@H](C)CO)C[C@@H]1C,6,-85[16.7 µM]
CCCNC(=O)N(C)C[C@@H]1Oc2cc(C#CCN(C)C)ccc2S(=O)(=O)N([C@@H](C)CO)C[C@@H]1C,6,-14[16.7 µM]
Cc1ccc(S(=O)(=O)Nc2ccc3c(c2)C(=O)N([C@H](C)CO)C[C@@H](C)[C@@H](CN(C)S(=O)(=O)c2cn(C)cn2)O3)cc1,4,-31[16.7 µM]
Cc1noc(C)c1S(=O)(=O)N(C)C[C@H]1Oc2c(NS(=O)(=O)c3cn(C)cn3)cccc2C(=O)N([C@@H](C)CO)C[C@H]1C,-9,-12[16.7 µM]
Cc1noc(C)c1NC(=O)Nc1ccc2c(c1)C(=O)N([C@H](C)CO)C[C@H](C)[C@H](CN(C)C(=O)Nc1ccc(C(F)(F)F)cc1)OCCCC[C@H](C)O2,1,-11[16.7 µM]
COc1ccc(C#Cc2ccc3c(c2)O[C@@H](CN(C)C(=O)NC2CCCCC2)[C@H](C)CN([C@@H](C)CO)S3(=O)=O)cc1,-15,21[16.7 µM]
COc1ccc(S(=O)(=O)Nc2ccc3c(c2)C(=O)N([C@@H](C)CO)C[C@@H](C)[C@@H](CN(C)C(=O)Nc2ccc(C(F)(F)F)cc2)OCCCC[C@H](C)O3)cc1,-21,-10[16.7 µM]
CNC[C@H]1OCCCC[C@H](C)Oc2ccc(NS(=O)(=O)c3cn(C)cn3)cc2C(=O)N([C@H](C)CO)C[C@@H]1C,-9,-9[16.7 µM]
C[C@H](CO)N1C[C@H](C)[C@@H](CN(C)C(=O)Cc2ccccn2)Oc2ncc(-c3cccc(C(=O)N(C)C)c3)cc2C1=O,11,3[16.7 µM]
CC(C)C#Cc1cnc2c(c1)C(=O)N([C@@H](C)CO)C[C@@H](C)[C@@H](CN(C)C(=O)Nc1ccccc1F)O2,8,7[16.7 µM]
C[C@@H]1CN([C@H](C)CO)C(=O)Cc2cc(NC(=O)Nc3ccccc3)ccc2O[C@H]1CN(C)Cc1ccncc1,-2,0[16.7 µM]

Ordered by SMILES length (high to low): some entries from above
Structure,UUG fidelity,HIV Env fusion
Cc1ccc(S(=O)(=O)Nc2ccc3c(c2)C(=O)N([C@H](C)CO)C[C@@H](C)[C@@H](CN(C)S(=O)(=O)c2cn(C)cn2)O3)cc1,4,-31[16.7 µM]
Cc1noc(C)c1S(=O)(=O)N(C)C[C@H]1Oc2c(NS(=O)(=O)c3cn(C)cn3)cccc2C(=O)N([C@@H](C)CO)C[C@H]1C,-9,-12[16.7 µM]
CCCNC(=O)N(C)C[C@@H]1Oc2cc(C#CCN(C)C)ccc2S(=O)(=O)N([C@@H](C)CO)C[C@@H]1C,6,-14[16.7 µM]

The list continues.
Structure,UUG fidelity,HIV Env fusion
COc1ccc(-c2cnc3c(c2)C(=O)N([C@H](C)CO)C[C@H](C)[C@H](CN(C)S(=O)(=O)c2cccc(OC)c2)O3)cc1,-5,23[16.7 µM]
O=C(Nc1ccc(F)cc1)N[C@@H]1C=C[C@H](CC(=O)N2CCCCC2)O[C@@H]1CO,13,3[16.7 µM]
C[C@H]1CN([C@@H](C)CO)C(=O)Cc2cc(NC(=O)CCCCCC(=O)Nc3ccccc3N)ccc2O[C@@H]1CN(C)Cc1ccc(Oc2ccccc2)cc1,9,21[16.7 µM]
COCC(=O)Nc1ccc2c(c1)[C@@H]1C[C@H](CC(=O)NCC(F)(F)F)O[C@H](CO)[C@@H]1O2,-4,-13[16.7 µM]
C[C@@H]1CN([C@H](C)CO)S(=O)(=O)c2ccc(C3=CCCCC3)cc2O[C@@H]1CN(C)C(=O)c1ccncc1,-6,12[16.7 µM]
C[C@@H]1CCCCO[C@@H](CN(C)Cc2ccc(Cl)c(Cl)c2)[C@@H](C)CN([C@@H](C)CO)C(=O)c2cc(NC(=O)c3ccccc3)ccc2O1,17,-15[16.7 µM]
C[C@H](NC(=O)C[C@@H]1CC[C@@H](NC(=O)C2CC2)[C@@H](CO)O1)c1ccccc1,-12,0[16.7 µM]
Cc1ccc(S(=O)(=O)N(C)C[C@@H]2Oc3c(NC(=O)Nc4c(C)noc4C)cccc3C(=O)N([C@@H](C)CO)C[C@@H]2C)cc1,0,-17[16.7 µM]
CCCC#Cc1ccc2c(c1)O[C@@H](CN(C)Cc1ccccn1)[C@@H](C)CN([C@@H](C)CO)S2(=O)=O,-23,23[16.7 µM]
COc1ccc(CNC(=O)C[C@H]2C[C@@H]3c4cc(NC(=O)CC5CC5)ccc4O[C@@H]3[C@H](CO)O2)cc1,-8,32[16.7 µM]
COc1cccc(-c2ccc([C@H]3[C@@H](CO)N(C(=O)Cc4ccccc4)[C@H]3C#N)cc2)c1,1,23[16.7 µM]
CO[C@@H]1CN(C)C(=O)c2ccc(NC(=O)C3CC3)cc2OC[C@H](C)N(C(C)=O)C[C@@H]1C,-7,6[16.7 µM]
C/C=C/c1ccc2c(c1)O[C@H](CN(C)C(=O)CN(C)C)[C@@H](C)CN([C@@H](C)CO)S2(=O)=O,-7,-6[16.7 µM]
COc1ccc(NC(=O)N(C)C[C@@H]2OCCCC[C@@H](C)Oc3ccc(NC(=O)Nc4ccccc4)cc3C(=O)N([C@H](C)CO)C[C@H]2C)cc1,-5,-7[16.7 µM]
COc1cccc(-c2cn(CC[C@@H]3CC[C@@H](NS(=O)(=O)c4ccccc4Cl)[C@H](CO)O3)nn2)c1,-30,-22[16.7 µM]

In another format: four of the compounds above.
Values in the order: UUG fidelity | HIV Env fusion
> CCCC#Cc1ccc2c(c1)O[C@@H](CN(C)Cc1ccccn1)[C@@H](C)CN([C@@H](C)CO)S2(=O)=O
    -23 | 23[16.7 µM]
> COc1ccc(CNC(=O)C[C@H]2C[C@@H]3c4cc(NC(=O)CC5CC5)ccc4O[C@@H]3[C@H](CO)O2)cc1
    -8 | 32[16.7 µM]
> COc1cccc(-c2ccc([C@H]3[C@@H](CO)N(C(=O)Cc4ccccc4)[C@H]3C#N)cc2)c1
    1 | 23[16.7 µM]
> CO[C@@H]1CN(C)C(=O)c2ccc(NC(=O)C3CC3)cc2OC[C@H](C)N(C(C)=O)C[C@@H]1C
    -7 | 6[16.7 µM]

Next results.
Structure,UUG fidelity,HIV Env fusion
COc1ccccc1-c1cnc2c(c1)C(=O)N([C@@H](C)CO)C[C@@H](C)[C@H](CN(C)C(=O)CN(C)C)O2,11,-19[16.7 µM]
COc1ccc(CN(C)C[C@@H]2Oc3c(NS(=O)(=O)c4cccs4)cccc3C(=O)N([C@H](C)CO)C[C@@H]2C)cc1,-2,-5[16.7 µM]
C[C@H](CO)N1C[C@H](C)[C@@H](CN(C)C(=O)Nc2ccc(F)cc2)Oc2cc(-c3cccc(C(=O)N(C)C)c3)ccc2S1(=O)=O,6,-30[16.7 µM]
COCC#Cc1cnc2c(c1)C(=O)N([C@H](C)CO)C[C@@H](C)[C@H](CN(C)C(=O)NC1CCCC1)O2,-12,0[16.7 µM]
Cc1noc(C)c1S(=O)(=O)Nc1ccc2c(c1)C(=O)N([C@H](C)CO)C[C@H](C)[C@@H](CN(C)Cc1ccc(Cl)c(Cl)c1)O2,-2,17[16.7 µM]
C[C@@H]1CCCCO[C@H](CN(C)C(=O)Nc2ccc(F)cc2)[C@@H](C)CN([C@H](C)CO)C(=O)c2cc(NC(=O)NC3CCCCC3)ccc2O1,-18,-33[16.7 µM]
C[C@@H]1CN([C@H](C)CO)C(=O)c2cccc(NS(C)(=O)=O)c2O[C@@H]1CN(C)C(=O)Nc1ccc2c(c1)OCO2,-5,-16[16.7 µM]
C[C@@H]1CN([C@H](C)CO)C(=O)c2cc(-c3ccc(C#N)cc3)cnc2O[C@@H]1CN(C)Cc1ccccn1,3,9[16.7 µM]
O=C(C[C@@H]1CC[C@@H]2[C@H](COC[C@H](O)CN2Cc2nccs2)O1)NCc1ccccc1Cl,-8,41[16.7 µM]
CO[C@H]1CN(C)C(=O)c2ccc(NC(=O)C3CCC3)cc2OC[C@@H](C)N(C(=O)NC(C)C)C[C@@H]1C,1,-13[16.7 µM]
Cc1ccc(S(=O)(=O)N(C)C[C@@H]2Oc3c(NC(=O)c4ccc(-c5nccs5)cc4)cccc3C(=O)N([C@@H](C)CO)C[C@H]2C)cc1,5,-110[16.7 µM]
C[C@@H]1CCCCO[C@@H](CN(C)C(=O)Nc2ccc(F)cc2)[C@@H](C)CN([C@H](C)CO)C(=O)c2cc(NC(=O)CCC(F)(F)F)ccc2O1,-1,-12[16.7 µM]
C/C=C/c1ccc2c(c1)O[C@@H](CN(C)C(=O)c1ccccc1F)[C@H](C)CN([C@@H](C)CO)S2(=O)=O,7,4[16.7 µM]
COc1cccc(S(=O)(=O)N[C@H]2CC[C@H](CC(=O)NCc3ccc(Cl)cc3)O[C@@H]2CO)c1,13,-8[16.7 µM]
C[C@@H]1CCCCO[C@@H](CN(C)Cc2ccncc2)[C@H](C)CN([C@@H](C)CO)C(=O)c2cc(NC(=O)Nc3ccc(F)cc3)ccc2O1,20,-15[16.7 µM]
C[C@H](CO)N1C[C@H](C)[C@H](CN(C)S(=O)(=O)c2cccc(F)c2)Oc2ncc(C#CCN(C)C)cc2C1=O,17,-9[16.7 µM]
COCC(=O)Nc1ccc2c(c1)[C@@H]1C[C@H](CC(=O)NCc3ccc(Cl)cc3)O[C@H](CO)[C@@H]1O2,-8,37[16.7 µM]
O=C(C[C@@H]1C=C[C@H](NC(=O)Cc2ccccn2)[C@@H](CO)O1)NCCc1ccncc1,-6,-1[16.7 µM]
CCOC(=O)N(C)C[C@H]1OCc2cn(nn2)CCCC(=O)N([C@@H](C)CO)C[C@@H]1C,-7,-1
C[C@@H]1CN([C@@H](C)CO)C(=O)CCCn2cc(nn2)CO[C@@H]1CN(C)Cc1ccc2c(c1)OCO2,9,-22[16.7 µM]
CNC(=O)C[C@H]1CC[C@H]2[C@@H](COc3ccc(NC(=O)c4cccs4)cc3C(=O)N2C)O1,-5,-11[16.7 µM]
COc1ccccc1C#Cc1ccc2c(c1)O[C@H](CN(C)Cc1cncnc1)[C@H](C)CN([C@H](C)CO)S2(=O)=O,7,1[16.7 µM]
CN1C(=O)c2cc(NC(=O)Cc3ccccc3)ccc2OC[C@H]2O[C@H](CC(=O)NCC3CC3)CC[C@H]21,8,-5[16.7 µM]
C[C@@H]1CN([C@H](C)CO)C(=O)Cc2cc(NS(=O)(=O)c3ccc(Cl)cc3)ccc2O[C@H]1CN(C)C(=O)Nc1cccc2ccccc12,-1,22[16.7 µM]
COc1ccc(NC(=O)N(C)C[C@@H]2OCCCC[C@@H](C)Oc3ccc(NC(=O)C4CCCCC4)cc3C(=O)N([C@@H](C)CO)C[C@H]2C)cc1,2,8[16.7 µM]
Cc1noc(C)c1S(=O)(=O)Nc1ccc2c(c1)C(=O)N([C@H](C)CO)C[C@H](C)[C@H](CN(C)Cc1ccccc1)OCCCC[C@H](C)O2,22,-16[16.7 µM]
Cc1ccc(S(=O)(=O)N(C)C[C@H]2OCCCC[C@H](C)Oc3ccc(NC(=O)NC(C)C)cc3C(=O)N([C@@H](C)CO)C[C@@H]2C)cc1,5,-11[16.7 µM]
Cc1noc(C)c1S(=O)(=O)Nc1ccc2c(c1)C(=O)N([C@H](C)CO)C[C@H](C)[C@@H](CN(C)C(=O)NC1CCCCC1)OCCCC[C@@H](C)O2,2,-17[16.7 µM]
CN1C(=O)c2cc(NC(=O)Cc3ccccc3)ccc2OC[C@@H]2O[C@@H](CC(=O)O)CC[C@@H]21,-10,-5[16.7 µM]
C[C@@H]1CCCCO[C@@H](CN(C)C(=O)Nc2ccc3c(c2)OCO3)[C@H](C)CN([C@@H](C)CO)C(=O)c2cc(NS(=O)(=O)c3cccs3)ccc2O1,-2,5[16.7 µM]
O=C(C[C@@H]1CC[C@@H](NC(=O)NC2CCCCC2)[C@H](CO)O1)NCc1ccccc1,-13,-6[16.7 µM]
C[C@@H]1CCCCO[C@H](CN(C)C(=O)CCCN(C)C)[C@H](C)CN([C@@H](C)CO)C(=O)c2cc(NC(=O)Nc3ccc(F)cc3)ccc2O1,-5,9[16.7 µM]
COCCCNC(=O)[C@@]1(Cc2ccccc2N=[N+]=[N-])N=C(c2ccc(OCCCO)cc2)O[C@H]1c1ccccc1,2,21[16.7 µM]
COc1ccc(NC(=O)Nc2ccc3c(c2)CC(=O)N([C@@H](C)CO)C[C@@H](C)[C@H](CN(C)S(=O)(=O)c2cn(C)cn2)O3)cc1,-16,-6[16.7 µM]
O=C(NCC[C@@H]1CC[C@H](NC(=O)C2CCCCC2)[C@H](CO)O1)c1cnccn1,-4,6[16.7 µM]
C[C@@H]1CN([C@H](C)CO)C(=O)c2cc(C#Cc3ccccc3F)cnc2O[C@@H]1CN(C)C(=O)C1CC1,1,21[16.7 µM]
C[C@H]1CCCCO[C@@H](CN(C)Cc2ccncc2)[C@@H](C)CN([C@@H](C)CO)C(=O)c2cc(NC(=O)CCC(F)(F)F)ccc2O1,-10,9[16.7 µM]
Cc1noc(C)c1S(=O)(=O)Nc1ccc2c(c1)CC(=O)N([C@H](C)CO)C[C@H](C)[C@@H](CN(C)S(=O)(=O)c1cccs1)O2,13,-9[16.7 µM]

Source: PubChem BioAssay
